Cruzain inh Det = cruzain (T. cruzi) inhibition with detergent. purified cruzain, Z-FR-AMC fluorescence, 0.01% Triton. Potency, µM, for the others: max response, negative = inhibition, usual class: inhibitors. hit rate 0.43% among 200,000. AID 1478; active means well fitted curve in the direction sought with a large enough effect; inconclusive means small, poorly fitted or top-dose-only effect, or another doubt; inactive means no such curve, though single readings can be large; an effect the other way counts as inactive or inconclusive;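 further: plate controls were neutral wells for no effect and buffer without enzyme for full effect; nearly all actives have a fitted effect of over 40% in size; top concentration of the series not given in the record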
Target sequence (P25779 123-467 limits assumed): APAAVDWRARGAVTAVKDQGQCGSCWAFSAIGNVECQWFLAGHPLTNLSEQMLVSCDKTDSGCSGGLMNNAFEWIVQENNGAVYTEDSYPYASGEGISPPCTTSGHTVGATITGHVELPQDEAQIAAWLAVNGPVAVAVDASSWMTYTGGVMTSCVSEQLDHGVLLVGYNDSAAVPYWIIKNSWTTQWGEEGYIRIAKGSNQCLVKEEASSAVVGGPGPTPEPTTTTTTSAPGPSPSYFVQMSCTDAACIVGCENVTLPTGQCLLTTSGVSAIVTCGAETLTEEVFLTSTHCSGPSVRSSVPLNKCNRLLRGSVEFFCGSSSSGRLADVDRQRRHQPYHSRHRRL
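Cysteine protease activity tested under reducing, mildly acidic conditions (100 mM sodium acetate pH 5.5, 5 mM DTT) plus 0.01% Triton X-100. Cruzain 1.5 nM; substrate Z-FR-AMC 2 uM; 15 min compound preincubation at room temperature.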
NS1 function inh = blocks influenza NS1 protein function | S. cerevisiae slowed by influenza A NS1, growth recovery by OD600 | Potency, µM (highest dose often 46.1 µM), inactives show at the top dose activity, positive = more growth | hit rate 0.4% among 270,000 | AID 2326; further: actives are rising curves; nearly all actives have a fitted effect of over 50% in size
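Compounds were scored for reversing the slow growth caused by influenza A NS1 in S. cerevisiae, measured by optical density at 600 nm. Assay medium contained 2% galactose at pH 6.0; NS1-free yeast of the same strain were the positive control.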
Cruzain inh noDet = cruzain (T. cruzi) inhibition without detergent. P25779. purified cruzain, Z-FR-AMC fluorescence, no detergent. Potency, µM, for inactives: max response, negative = inhibition, actives largely listed as inhibitors. hit rate 2.3% among 200,000; active means well fitted curve in the direction sought with a large enough effect; inconclusive means small, poorly fitted or top-dose-only effect, or another doubt; inactive means no such curve, though single readings can be large; an effect the other way counts as inactive or inconclusive;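 further: plate controls were enzyme without inhibitor for no effect and buffer without enzyme for full effect; nearly all actives have a fitted effect of over 40% in size; top concentration of the series not given in the record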
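Purified cruzain at 1.5 nM, pre-incubated 15 min with compound at room temperature in 100 mM sodium acetate pH 5.5, 5 mM DTT, 0.00005% Triton X-100. Reaction started with 2 uM Z-FR-AMC; AMC fluorescence increase over 60 s gives rate.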
StopGo reporter = lowers the luciferase signal of an FMDV 2A StopGo reporter; AID 1159524; human cells with a luciferase reporter of 2A StopGo recoding; control for the full effect not named in the record; Potency, µM (series often up to 57.9 µM), inactives show at the highest dose signal change, negative = less light; hit rate 1.2% among 410,000; active = well fitted falling curve with a large enough effect; inconclusive = small, poorly fitted or top-dose-only effect; inactive = no such curve, though single readings can be large or run the other way; tested in HEK293T cells; further: on the % scale 0 is the no-effect control and ±100 the full control effect; nearly all actives have a fitted effect of over 45% in size; luciferase light after 4 h
Marburg entry inh = Marburg virus entry inhibition. Marburg virus pseudotyped entry inhibition, cell reporter; control for the full effect not named in the record; about a third of the inactives were read at about 46 µM. Potency, µM (series often up to 37.8 µM), inactives show top-dose activity change, negative = inhibition, actives largely listed as inhibitors. hit rate 1.8% among 300,000. AID 540276; active = well fitted inhibition curve with a large enough effect; inconclusive = small, poorly fitted or top-dose-only effect, or effect the other way; inactive = flat fitted curve, though single readings scatter; tested in HEK293 cells; about a fifth of its hits are not listed in these tables; further: on the % scale 0 is the no-effect control and ±100 the full control effect; luciferase read-out
LASV entry inh = Lassa virus entry inhibition; hit rate 1.2% among 300,000; Lassa virus pseudotype entry inhibition, cell reporter; control for the full effect not named in the record; AID 540256; Potency, µM (titrated, usually from 37.9 µM), for inactives: top-dose activity change, negative = inhibition, usual class: inhibitors; active means well fitted inhibition curve with a large enough effect; inconclusive means small, poorly fitted or top-dose-only effect, or effect the other way; inactive means flat fitted curve, though single readings scatter; tested in HEK293 cells; further: on the % scale 0 is the no-effect control and ±100 the full control effect; nearly all actives have a fitted effect of over 50% in size; luciferase read-out
SARS PLP yeast = SARS-CoV PLP inhibition in yeast | S. cerevisiae expressing SARS-CoV PLpro, growth rescue; control for the full effect not named in the record | Potency, µM (doses to about 32.9 µM), inactives show at the highest dose activity, positive = growth rescue | hit rate 0.19% among 330,000 | AID 485353; further: 0% is about no effect; nearly all actives have a fitted effect of over 55% in size; growth read by luminescence after 48 h
RE007 growth inh = less growth of the S. pombe RE007 Vpr strain. AID 651644. S. pombe RE007 Vpr strain, BacTiter-Glo ATP luminescence, 24 h; control for the full effect not named in the record. Potency, µM (highest dose often 92.2 µM), for the others: top-dose activity change, negative = less growth. hit rate 0.21% among 360,000; active = well fitted falling curve with a large enough effect; inconclusive = small, poorly fitted or top-dose-only effect; inactive = no such curve, though single readings can be large or run the other way;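 further: on the % scale 0 is the no-effect control and ±100 the full control effect; nearly all actives have a fitted effect of over 50% in size; the assay follows cell death caused by Vpr and the record does not say whether a fall means rescue or toxicity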
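Fission yeast strain RE007, carrying one chromosomally integrated HIV-1 vpr copy, was seeded at OD 0.01 in PMG+AL medium with 23 nL pinned compound. After 24 h at 30 °C and 99% humidity, viability was read by BacTiter-Glo luminescence.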
An asterisk follows results filed as active; ? = inconclusive; / = no result given; & = joins results of further samples; ! = not active in a repeat; [ ] = another dose, or the depositor's remark. Unless noted, the call rests on the fitted dose curve; in most records, active means well fitted rising curve with a large enough effect; inconclusive means small, poorly fitted or top-dose-only effect; inactive means no such curve, though single readings can be large or run the other way. Potency means the concentration at half of the fitted maximal effect.

(1) Cc1ccc(C2c3[nH]c4ccccc4c3C[C@H]3C(=O)N(c4ccccc4C(=O)NCCCN4CCOCC4)C(=O)N23)cc1 (some centres not stated)
(2) O=C(O)C1CC(=O)N(CCc2ccccc2)C1 (configuration not stated)
(3) COc1ccc(-c2noc(CCC(=O)NCCCN3CCC(Cc4ccccc4)CC3)n2)cc1
(4) COc1ccc(/C=N/n2nnnc2N)c(OC)c1
(5) CCOCCCN(C(=O)Cn1nnc2ccccc21)C(C(=O)NCc1ccco1)c1ccncc1 (configuration not stated)
(6) CC(=O)NS(=O)(=O)c1ccc(NC(=O)CN2C(=O)C3C4C=CC(C4)C3C2=O)cc1 (configuration not stated)
(7) Cn1c(=O)c2c(Nc3ccc(F)cc3)cc(=O)n(-c3ccccc3)c2n(C)c1=O
(8) CCN1C(=O)N/C(=C/c2ccc(C)o2)C1=O
(9) COc1ccc(S(=O)(=O)NC(C)(C)C)cc1-c1nnc2c3ccccc3c(C)nn12
(10) COc1ccc(C2CC(c3cccs3)=NN2C(=O)CSc2nc(=O)n3cc(C)ccc3n2)cc1 (configuration not stated)
Screen / compound no. | 1 | 2 | 3 | 4 | 5 | 6 | 7 | 8 | 9 | 10
Cruzain inh noDet | / | 2% | 2% | / | 15% | 0% | / | -27% | ? | /
StopGo reporter | 0% | 9% | ? | 21% | -9% | -23% | 2% | -1% | 4%&27% | -16%
Cruzain inh Det | / | 8.4% | 4.1% | / | 3.4% | 2.7% | / | -9.7% | 0.8%&-7.7% | /
RE007 growth inh | -13% | 0% | -12% | 3% | 11% | 1% | 9% | 8% | 2% | -7%
LASV entry inh | / | 22% | -28% | 26%[46.1 µM] | 1% | 10% | 12% | -8% | ? | -20%
Marburg entry inh | / | 7% | ? | ? | ? | 1% | -1% | -8% | -2%&-2% | -29%
NS1 function inh | 1% | -3% | -13% | -2% | -4% | 6% | 4% | -25% | 2% | /
SARS PLP yeast | -2% | 11% | -1% | -2% | 0% | 16% | 0% | -1% | 2% | 7%

(11) COC(=O)c1ccccc1NC(=O)Cn1c(=O)nc(-c2ccccc2)c2cc(Cl)ccc21
(12) O=C(Nc1cccc(-c2nc3ncccc3o2)c1)c1ccco1
(13) COc1ccccc1N1C(=O)C2C3CC(c4ccccc4)C(C3)C2C1=O (configuration not stated)
(14) Cc1ccc2nc(SCC(=O)N3CCCCCC3)nc(=O)n2c1
(15) COCCN(Cc1cc2cc(C)c(C)cc2nc1Cl)C(=O)N1CCOCC1
(16) COc1ccc(OC)c(NC(=O)C2CCCN(S(=O)(=O)c3ccc4c(c3)CCCC(=O)N4)C2)c1 (configuration not stated)
(17) O=C(C1CCN(S(=O)(=O)c2cccc3nsnc23)CC1)N1CCCc2ccccc21
(18) C/C(Cl)=C/Cn1c(NCCCn2ccnc2)nc2c1c(=O)[nH]c(=O)n2C
(19) CCN1C(=O)CC2(C[N+]3(C)CCC2CC3)C1=O (configuration not stated)
(20) CC(C)C(NS(=O)(=O)c1cccc(C(F)(F)F)c1)C(=O)O (configuration not stated)
Screen / compound no. | 11 | 12 | 13 | 14 | 15 | 16 | 17 | 18 | 19 | 20
Cruzain inh noDet | -8% | 4% | -6% | / | / | ? | -5% | -8% | 7% | /
StopGo reporter | 18% | -5% | ? | -9% | -1% | ? | ? | -5% | -4% | 0%
Cruzain inh Det | -1.3% | 1.4% | -1.1% | / | / | -0.7% | 2.9% | 1.2% | 1.4% | /
RE007 growth inh | / | 8% | 0% | 5% | 6% | / | 0% | -1% | 3% | 14%
LASV entry inh | -27%[46.1 µM] | -5% | 0% | 12% | -6%[46.1 µM] | 23%[46.1 µM] | ? | 6% | ? | /
Marburg entry inh | / | -2%[46.1 µM] | ? | 6%[46.1 µM] | ? | / | ? | 0% | 2% | /
NS1 function inh | / | 1% | -3% | / | / | / | 7% | 1% | 13% | 1%
SARS PLP yeast | / | -10% | 24% | -5% | 1% | / | -8% | 1% | -4% | 0%

(21) COc1ccc(N(CC(=O)NCCSC2CCCCC2)S(C)(=O)=O)c(OC)c1
(22) Cc1c(C(=O)NCCN2C(=O)S/C(=C\c3cccs3)C2=O)cccc1[N+](=O)[O-]
(23) COC(=O)c1sc(C(F)(F)F)c(-c2ccccc2)c1S(=O)(=O)N1CCOCC1
(24) CN(C)c1ccc(C(C[N+](=O)[O-])c2c(N)n(C)c(=O)n(C)c2=O)c(F)c1C#N (configuration not stated)
(25) O=C(CSc1nccc(=O)[nH]1)NC1CCCC1
(26) CC(C)CN(CCNC(=O)CN1C(=O)COc2ccc(S(=O)(=O)N3CCOCC3)cc21)CC(C)C
(27) Cc1nnc2sc(-c3ccc(NC(=O)CSc4ccc(Cl)cc4)cc3)nn12
(28) Cc1cccc2c1-c1sc(C(=O)Nc3ccccc3N3CCN(C)CC3)cc1CO2
(29) Cc1ccc(NC2CCCN(C(=O)c3ccccc3N3CCOCC3)C2)cc1C (configuration not stated)
(30) COc1ccc(S(=O)(=O)c2c(Nc3ccc(F)cc3)sc(C(=O)c3ccc(C)cc3C)c2N)cc1
Screen / compound no. | 21 | 22 | 23 | 24 | 25 | 26 | 27 | 28 | 29 | 30
Cruzain inh noDet | ? | 2% | / | / | / | / | 9% | / | / | 5µM*
StopGo reporter | 1% | -2% | -15% | 35µM* | -6% | -11% | -18% | ? | 20% | -8%
Cruzain inh Det | 2.7% | -3.6% | / | / | / | / | -8.6% | / | / | -1.4%
RE007 growth inh | -2% | -15% | 11% | ? | 9% | -15% | -3% | 0% | -6% | /
LASV entry inh | 14% | 12% | ? | / | -7%[46.1 µM] | -1%[46.1 µM] | 14% | ? | 17%[46.1 µM] | -3%[46.1 µM]
Marburg entry inh | 28% | 1% | 3% | / | 17%[46.1 µM] | -9%[46.1 µM] | -25% | 16µM* | 21%[46.1 µM] | /
NS1 function inh | 13% | 4% | / | -92% | 7% | -5% | -58% | -5% | 4% | /
SARS PLP yeast | 28% | -10% | / | -11% | 4% | 0% | -15% | -1% | 28% | /

(31) O=[N+]([O-])c1ccc(N2CCN(CCO)CC2)c2ncccc12
(32) COc1cccc(NS(=O)(=O)c2ccc(S(=O)(=O)N3CCOCC3)cc2)c1
(33) COc1cc(/C=N/NC(=O)c2ccc(NC(=O)C3CC3)cc2)ccc1OC(C)=O
(34) COc1ccc(Cn2nnnc2C(c2ccccc2)N2CCN(C3CCCC3)CC2)cc1 (configuration not stated)
(35) O=C(Nc1ccc(S(=O)(=O)Nc2nccs2)cc1)c1nn(-c2ccccc2)ccc1=O
(36) CC1CC(C)CN(c2ncc3c(n2)CC(c2ccccc2Cl)CC3=O)C1 (configuration not stated)
(37) FC(F)(F)c1ccccc1NC(=S)N/N=C1\CC2CC=CC12 (configuration not stated)
(38) CCc1ccc(C(=O)C(C)OC(=O)c2nc3nc(C)cc(C)n3n2)cc1 (configuration not stated)
(39) Oc1ccc(-c2nc3ccc(Cl)cn3c2Nc2ccc3c(c2)OCO3)cc1
(40) CC(C)N1C(=O)C2C(C(=O)NCc3ccccc3)C3C=CC2(O3)C1C(=O)NC(C)(C)C (configuration not stated)
Screen / compound no. | 31 | 32 | 33 | 34 | 35 | 36 | 37 | 38 | 39 | 40
Cruzain inh noDet | -3% | -4% | / | -2% | / | -25% | / | / | -4% | -4%
StopGo reporter | 4% | -1% | -23% | -27% | 25% | ? | 21% | -4% | 1% | 24%
Cruzain inh Det | -4.2% | 0.8% | / | 2.8% | / | -5.3% | / | / | -1.6% | 1.6%
RE007 growth inh | 3% | 11% | -4% | 9% | -6% | 7% | 11% | 3% | / | -2%
LASV entry inh | ? | 3% | -26% | -6% | / | 10µM* | ? | 12% | ? | -13%
Marburg entry inh | -7% | 3% | 2% | 7.1µM*! | / | ? | -30%[46.1 µM] | ? | 7%[46.1 µM] | 25%
NS1 function inh | -12% | -7% | 11% | -4% | 6% | -7% | / | / | / | 1%
SARS PLP yeast | -16% | -4% | -3% | 11% | -8% | -2% | 0% | 1% | / | -3%

(41) CCOC(=O)c1c(SC)[nH]c2c(Cl)cccc2c1=O
(42) Fc1ccccc1NC(=S)Nc1cccc2cnccc12
(43) O=C(N/N=C/c1cccn1-c1ccc([N+](=O)[O-])cc1)C(O)c1ccccc1 (configuration not stated)
(44) CN(C)c1nc2n(c(=O)n1)CCO2
(45) CCCCc1nc(SCC(=O)Nc2ccc(S(N)(=O)=O)cc2)n[nH]1
Screen / compound no. | 41 | 42 | 43 | 44 | 45
Cruzain inh noDet | / | / | -14% | -12% | -2%&16%
StopGo reporter | -27% | 13% | / | / | -4%&2%
Cruzain inh Det | / | / | -4.5% | 6.5% | 0.4%&0.5%
RE007 growth inh | 29% | -23% | 9% | 3% | -6%
LASV entry inh | 0% | / | 10% | 8% | 11%
Marburg entry inh | -3% | -12%[46.1 µM] | ? | 18% | 10%&10%
NS1 function inh | 1% | / | -1% | -4% | 0%
SARS PLP yeast | 1% | -2% | 0% | 3% | 0%

Ordered by length of the SMILES (highest first): some entries from above
(38) CCc1ccc(C(=O)C(C)OC(=O)c2nc3nc(C)cc(C)n3n2)cc1 (configuration not stated)
(39) Oc1ccc(-c2nc3ccc(Cl)cn3c2Nc2ccc3c(c2)OCO3)cc1
(45) CCCCc1nc(SCC(=O)Nc2ccc(S(N)(=O)=O)cc2)n[nH]1
(41) CCOC(=O)c1c(SC)[nH]c2c(Cl)cccc2c1=O
(44) CN(C)c1nc2n(c(=O)n1)CCO2
Screen / compound no. | 38 | 39 | 45 | 41 | 44
Cruzain inh noDet | / | -4% | -2%&16% | / | -12%
StopGo reporter | -4% | 1% | -4%&2% | -27% | /
Cruzain inh Det | / | -1.6% | 0.4%&0.5% | / | 6.5%
RE007 growth inh | 3% | / | -6% | 29% | 3%
LASV entry inh | 12% | ? | 11% | 0% | 8%
Marburg entry inh | ? | 7%[46.1 µM] | 10%&10% | -3% | 18%
NS1 function inh | / | / | 0% | 1% | -4%
SARS PLP yeast | 1% | / | 0% | 1% | 3%

This is a random part of the collection. Share with any hit: about 4.7%.
